Assay outcomes (PubChem)
FPR binder – binds the human formylpeptide receptor FPR | P21462 | AID 440 | FPR-expressing cells, fluorescent ligand binding, flow cytometry | inhibition, %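 (tested at 6.7 µM)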 | hit rate 0.74% among 24,000;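 also: 0% = buffer wells and 100% = receptor blocker peptide wells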
Target sequence (P21462 whole entry, looked up): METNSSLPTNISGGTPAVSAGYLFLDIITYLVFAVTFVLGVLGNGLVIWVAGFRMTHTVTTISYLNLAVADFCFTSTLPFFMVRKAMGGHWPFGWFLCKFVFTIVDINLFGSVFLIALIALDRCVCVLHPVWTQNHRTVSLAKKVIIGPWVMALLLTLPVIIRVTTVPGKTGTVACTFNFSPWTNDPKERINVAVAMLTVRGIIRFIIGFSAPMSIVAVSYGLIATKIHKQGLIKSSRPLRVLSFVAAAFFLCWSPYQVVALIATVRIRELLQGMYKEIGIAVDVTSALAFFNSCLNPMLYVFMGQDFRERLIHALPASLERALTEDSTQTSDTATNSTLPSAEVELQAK
FPRL1 ligand – ligands of human FPRL1, also counter-screen for FPR ligands. FPRL1-expressing cells, fluorescent ligand binding inhibition, flow cytometry. inhibition, %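 (tested at 6.7 µM)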. hit rate 0.3% among 24,000. AID 441;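 also: 0% = buffer alone and 100% = receptor blocker peptide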
Target sequence (P25090 whole entry, looked up): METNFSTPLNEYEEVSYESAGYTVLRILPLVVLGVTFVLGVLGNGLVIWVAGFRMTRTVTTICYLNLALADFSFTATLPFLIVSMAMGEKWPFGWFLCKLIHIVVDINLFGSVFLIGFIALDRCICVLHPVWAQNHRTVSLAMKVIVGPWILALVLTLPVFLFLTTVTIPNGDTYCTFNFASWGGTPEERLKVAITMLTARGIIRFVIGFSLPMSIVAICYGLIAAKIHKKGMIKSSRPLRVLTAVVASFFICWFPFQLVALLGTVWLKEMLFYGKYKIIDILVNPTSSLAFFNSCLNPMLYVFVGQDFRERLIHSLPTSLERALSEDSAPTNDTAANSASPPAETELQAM
VCAM-1 down imaging – suppression of endothelial VCAM-1 upregulation – imaging, high-content imaging, pooled HUVEC, TNFa stimulus (AID 456); HUVEC TNFa-induced VCAM-1 surface expression, immunofluorescence imaging; numbers were filed only for top-ranked candidate wells; hit rate 0.2% among 10,000; inhibition, % at 5 µM; hits with a dose series show IC50 in µM;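 active = top tenth filtered wells with inhibition above zero that passed visual or statistical confirmation; inactive = the rest, including hits rejected on review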;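 also: 0% = stimulated vehicle wells and 100% = unstimulated cells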
VCAM-1 inhibition – inhibitors of TNFa-induced VCAM-1 surface display, cell-based, plate reader, pooled HUVEC, TNFa stimulus (AID 454) | HUVEC TNFa-induced VCAM-1 surface immunofluorescence, plate reader; numbers were filed only for top-ranked candidate wells | hit rate 0.2% among 10,000 | inhibition, % at 5 µM;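 active = compound among top-ranked inhibitors of TNF-induced VCAM-1 adhesion protein staining, with the hit upheld by image or statistical review; inactive = the rest, including hits rejected on review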;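 also: 0% = TNFa with vehicle and 100% = cells without TNFa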
VCAM-1 augmentation – boosters of cytokine-driven VCAM-1 levels – imaging, high-content imaging, pooled HUVEC, TNFa stimulus (AID 457); calls only; Pooled HUVEC, TNFa-induced VCAM-1 immunofluorescence imaging; hits of this screen are not shown here; hit rate 0.2% among 10,000;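 active = a top-ranked rise in VCAM-1 staining upheld on image or statistical review; inactive = the rest, including candidates rejected on review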;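 also: compounds tested at 5 µM in the well; cells exposed to compound for 24 hours before fixing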
Numbers without * were called inactive; i = inactive; / = not tested or not shown.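 The calls were made as follows, unless noted: active = mean above 30%; inconclusive = self-fluorescent; inactive = the rest.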 These rows are one share of the data, so the mix of outcomes need not match the whole.

SMILES	FPR binder	FPRL1 ligand	VCAM-1 down imaging	VCAM-1 inhibition	VCAM-1 augmentation
Cc1ccc(C2C(C(=O)c3cc4ccccc4o3)=C(O)C(=O)N2CCCN(C)C)cc1 (stereo not drawn)	-8	-5	/	/	/
COC(=O)c1cn(C)c2ccc(S(=O)(=O)N3CCCC3)cc2c1=O	1	-7	/	/	/
C=CCc1ccccc1OCC(O)CN1CCN(c2ccccc2F)CC1 (stereo not drawn)	12	8	/	/	/
CC1(C)CC(=O)C2=C(C1)NC(=O)CC2c1cccc(F)c1 (stereo not drawn)	1	-6	/	/	/
O=C(CSc1nnc(Cn2c(=O)sc3ccccc32)n1-c1ccccc1)N1CCCCCC1	0	1	/	/	/
CCCc1nnc2n1N=C(c1ccc(OC)c(OC)c1)CS2	-6	3	i	i	i
COc1cc(OC)cc(OCC(O)Cn2cnc(-c3ccccc3)c2)c1 (stereo not drawn)	3	0	i	i	i
Cc1ccc(NC(=O)c2cc(-c3ccc(C)o3)nc3ccccc23)nc1	2	-6	i	i	i
CCn1c(=O)cc(SCC(=O)NCC2CCCO2)c2ccccc21 (stereo not drawn)	1	2	i	i	i
O=C(O)CCC(=O)N1CCOc2ccc(Cl)cc21	-14	-9	/	/	/
CCOC(=O)c1nnn(-c2nonc2-n2cccc2)c1CN1CCCCC1	0	3	/	/	/
Cn1c(=O)c2cc(S(=O)(=O)NCCC(=O)N3CC=C(c4ccccc4)CC3)ccc2n(C)c1=O	4	0	/	/	/
O=C1CCc2cc(S(=O)(=O)NCCC(=O)NC3CCN(Cc4ccccc4)CC3)ccc2N1	5	7	/	/	/
CCCCCn1c(N2CCN(Cc3ccccc3)CC2)nc2c1c(=O)[nH]c(=O)n2C	-4	-2	i	i	i
COc1ccc(CCn2c(=S)[nH]c3cc(C(=O)NCc4ccco4)ccc3c2=O)cc1OC	-2	2	/	/	/
O=C(COC(=O)c1cnccn1)Nc1ccc2c(c1)OCO2	-2	2	i	i	i
CCn1c(=O)cc(OCC(=O)N2CCN(C(=O)c3ccco3)CC2)c2ccccc21	-3	-2	/	/	/
O=C(c1ccccc1Nc1ccc(SC(F)F)cc1)N1CCCCC1	-14	-14	/	/	/
Cc1c(C(=O)NCc2cccnc2)oc2ccc(S(=O)(=O)N3CCCCCC3)cc12	-2	-9	/	/	/
Cc1cc(NC(=O)CSc2nc(C3CC3)nc3sc4c(c23)CCC(C)C4)no1 (stereo not drawn)	8	-2	i	i	i
CSc1nnc(Cn2c(=O)sc3ccccc32)n1-c1cccc(Cl)c1	6	1	/	/	/
Cc1ncc(CO)c2c1OC(C)(C)OC2	15	4	i	i	i
CC(C)NC(=O)C1CCCN(S(C)(=O)=O)C1 (stereo not drawn)	-5	-4	/	/	/
CC(C)CCn1c(=S)[nH]c2ncccc2c1=O	-13	-5	/	/	/
O=C(c1ccccc1)N1CCN(CC2CC=CCC2)CC1 (stereo not drawn)	2	-1	i	i	i
O=C(Nc1nccs1)C1CCN(S(=O)(=O)c2cccnc2)CC1	-1	0	/	/	/
O=C(c1cc2ccccc2cc1OCC(O)CN1CCCCC1)N1CCCCC1 (stereo not drawn)	2	3	/	/	/
COc1ccccc1N(CN1CCCC1=O)C(=O)c1ccccc1F	7	0	/	/	/
O=C(Nc1nnc(SCC(=O)N2CCCCC2)s1)C1CCCCC1	9	-2	i	i	i
COc1ccc(-c2nnc3sc(-c4c(OC)cccc4OC)nn23)cc1	-5	-7	i	i	i
CC(C(=O)O)N1C(=O)CSc2ncccc21 (stereo not drawn)	-12	-8	/	/	/
CC(=O)Nc1ccc(S(=O)(=O)N2CCN(C(=O)CCC3CCCC3)CC2)cc1	12	3	i	i	i
CC1Cc2ccccc2N1C(=O)CCN1C(=O)C2C3C=CC(C3)C2C1=O (stereo not drawn)	1	-2	/	/	/
COCCn1nnnc1CN(CCCN1CCOCC1)Cc1cc2c(C)ccc(C)c2[nH]c1=O	-2	0	i	i	i
COc1ccc(C(CC(=O)O)NC(=O)COc2ccccc2OC)cc1OC (stereo not drawn)	0	-2	/	/	/
CCOc1ccc(Cn2c(SCCCCC#N)nc3c2c(=O)n(C)c(=O)n3C)cc1OCC	-7	0	/	/	/
COc1cc2c(C(=O)NCc3ccc4c(c3)OCO4)cn(CC(C)C)c(=O)c2cc1OC	0	-6	/	/	/
CCOC(=O)c1[nH]c(C)c(C(=O)Nc2ccccc2F)c1C	-3	-1	i	i	i
COc1cccc(-c2nnc3sc(C4CCCCC4)nn23)c1	16	8	i	i	i
FC(F)(F)c1cc(-c2cccs2)nc(NCc2ccco2)n1	4	7	/	/	/
O=C(NCCN1CCN(c2ccccc2)CC1)C1CCCN(S(=O)(=O)c2cnc[nH]2)C1 (stereo not drawn)	0	9	/	/	/
Nc1ccccc1S(=O)(=O)c1ccccc1N	-3	-5	/	/	/
c1ccc(-c2nc3ccccc3nc2-c2ccccn2)nc1	-2	-4	i	i	i
CCN1CCCC1CNC(=O)c1ccc2c(=O)n(CCOC)c(=O)[nH]c2c1 (stereo not drawn)	4	5	/	/	/
Cc1cc(C)n2nc(SCc3cc(=O)n4c(C)cccc4n3)nc2n1	4	6	/	/	/

Next section.
Values run as follows: FPR binder | FPRL1 ligand | VCAM-1 down imaging | VCAM-1 inhibition | VCAM-1 augmentation
- CCN(CCCNC(=O)CN1C(=O)COc2ccccc21)c1ccccc1
  -2 | -12 | / | / | /
- N#CCCN1CCN(S(=O)(=O)c2ccc(S(=O)(=O)NCc3ccccc3)cc2)CC1
  -4 | 1 | / | / | /
- Cc1cccc(-n2ncc3c(Nc4c(C)n(C)n(-c5ccccc5)c4=O)ncnc32)c1
  -1 | 10 | / | / | /
- Cc1ccccc1N1C(=O)c2ccccc2C1Nc1cccnc1 (stereo not drawn)
  -2 | 1 | / | / | /
- CC(=O)Nc1ccc(-c2nn[nH]n2)cc1Cl
  6 | 0 | i | i | i
- CCOC(=O)N1CCN(C(=O)CN(Cc2ccccc2)S(=O)(=O)c2ccc(OC)c(C)c2)CC1
  -24 | -2 | i | i | i
- Cc1cc(C)n2nc(SCC#N)nc2n1
  1 | 2 | / | / | /
- CC1CCC(C(=O)NC(C(=O)NCCN2CCC(C)CC2)C(C)C)CC1 (stereo not drawn)
  -4 | 3 | i | i | i
- O=C(C1CCCO1)N1CCc2ccccc21 (stereo not drawn)
  -4 | 3 | i | i | i
- O=C(NCc1ccco1)C(Cc1ccccc1)NS(=O)(=O)c1cccc2nsnc12 (stereo not drawn)
  8 | 10 | / | / | /
- COCCNC(=O)CS(=O)Cc1nc(-c2ccc(Cl)cc2)oc1C (stereo not drawn)
  -2 | 1 | / | / | /
- CC(Oc1ccccc1Br)C(=O)N1CCc2ccccc21 (stereo not drawn)
  0 | -2 | / | / | /
- O=C(CCNS(=O)(=O)c1ccc2c(c1)CCC(=O)N2)NCc1ccc2c(c1)OCO2
  -5 | -3 | / | / | /
- O=C(C1CCN(S(=O)(=O)c2cccc3cccnc23)CC1)N1CCc2ccccc21
  -6 | -2 | / | / | /
- Cc1ccccc1S(=O)(=O)Cc1ccc(C(=O)NCCCN2CCN(C)CC2)o1
  -3 | 2 | / | / | /
- COCCn1c(SCC(=O)Nc2cccc(OC)c2)nnc1-c1ccc(Cl)cc1
  -1 | 4 | i | i | i
- Cc1c(C(=O)N2CCN(c3ccc(F)cc3)CC2)sc2nc(-c3ccccc3)cn12
  -2 | -14 | / | / | /
- Cc1cc(OCC(=O)NCCO)cc(C)c1Cl
  0 | 1 | i | i | i
- O=C(CN1CCN(c2ccc(F)cc2)CC1)Nc1cccc(C(F)(F)F)c1
  4 | 5 | / | / | /
- COC(=O)N1CC(c2ccccc2)CC1=O (stereo not drawn)
  3 | -2 | i | i | i
- Cc1cccc(Cn2c(=O)c3c(nc4n3CCN4Cc3ccco3)n(C)c2=O)c1
  0 | -10 | / | / | /
- Cc1nn(C)c(C)c1S(=O)(=O)N(CC(=O)Nc1nccs1)c1ccc(C(C)C)cc1
  -4 | -7 | / | / | /
- Cc1ccc(C2=CC(c3ccc(N(C)C)cc3)n3nnnc3N2)cc1 (stereo not drawn)
  -6 | -4 | / | / | /
- O=C(c1cnccn1)N(c1ccccc1)C1(C(=O)NC2CCCC2)CCCCC1
  0 | -3 | i | i | i
- CCOc1cc2[nH]c(=O)n(CC3CCC(C(=O)NCCCOC)CC3)c(=O)c2cc1OCC (stereo not drawn)
  -14 | 1 | / | / | /
- O=c1cc(O)nc(SCc2ccccc2Cl)[nH]1
  6 | -1 | / | / | /
- CC(C)c1cc(C(=O)Nc2cccc(Cl)c2)no1
  -1 | 3 | / | / | /
- S=C(N=Nc1ccccc1)NNc1ccccc1
  6 | 6 | i | i | i
- CCOC(=O)c1ccc(N2CSC3=C(C#N)C(c4cccs4)CC(=O)N3C2)cc1 (stereo not drawn)
  13 | -2 | / | / | /
- COc1cccc(Nc2nc(=O)[nH]nc2C)c1
  0 | 1 | i | i | i
- COc1ccc(N2CCC(CNC(=O)Nc3ccc(OC)cc3OC)C2)cc1 (stereo not drawn)
  -7 | -5 | / | / | /
- COc1ccc(CNCC(=O)Nc2cc(C)nn2-c2nc(C)cc(C)n2)cc1OC
  -2 | 2 | i | i | i
- O=C(c1cc(-c2cccs2)on1)N1CCN(c2ccc(F)cc2)CC1
  1 | 0 | / | / | /
- CCN(CCNS(=O)(=O)c1ccc2[nH]c(=O)sc2c1)c1ccccc1
  2 | 2 | / | / | /
- CC(=O)c1nc2ccccc2n1S(=O)(=O)c1ccc(Cl)cc1
  -2 | -2 | / | / | /
- Cc1c(C(=O)N2CCN(c3ccccc3)CC2)sc2ncnc(N3CCN(c4ccccc4)CC3)c12
  -4 | 0 | i | i | i
- Cc1ccc(N2CCN(S(=O)(=O)c3ccc(F)cc3)CC2)c(C)c1
  -5 | 5 | / | / | /
- O=C(c1cc2c(=O)n3ccccc3nc2s1)N1CCOCC1
  -1 | 0 | / | / | /
- CCn1c(=O)cc(SCC(=O)N2CCC(C)CC2)c2ccccc21
  8 | 2 | / | / | /
- Cc1c(NC(=O)C2CCCCN2S(=O)(=O)c2ccc(Cl)cc2)c(=O)n(-c2ccccc2)n1C (stereo not drawn)
  6 | -2 | i | i | i
- Cc1ccc(Cn2nnc3c(=O)n(CC(=O)N4CCN(c5ccccc5)CC4)cnc32)cc1
  -8 | -1 | / | / | /
- COc1cc(C2C(C#N)=C(N)OC3=C2C(=O)CCC3)cc(OC)c1OC(=O)N1CCOCC1 (stereo not drawn)
  4 | -2 | / | / | /
- O=C(NCc1ccccn1)C1CCN(S(=O)(=O)c2cnc[nH]2)CC1
  2 | -3 | / | / | /
- CCOC(=O)C(NC(=O)c1ccc(F)cc1)(Nc1nnc(C)s1)C(F)(F)F (stereo not drawn)
  1 | 1 | / | / | /
- COC(=O)c1ccc(NC(=O)CCn2c(=O)oc3ccccc32)cc1
  2 | 5 | / | / | /

Record cards (already shown).
Entry for COc1cc(C2C(C#N)=C(N)OC3=C2C(=O)CCC3)cc(OC)c1OC(=O)N1CCOCC1 (stereo not drawn) → FPR binder: 4; FPRL1 ligand: -2; VCAM-1 down imaging: /; VCAM-1 inhibition: /; VCAM-1 augmentation: /
Entry for COC(=O)c1ccc(NC(=O)CCn2c(=O)oc3ccccc32)cc1 → FPR binder: 2; FPRL1 ligand: 5; VCAM-1 down imaging: /; VCAM-1 inhibition: /; VCAM-1 augmentation: /

Going on with the list:
Values run as follows: FPR binder | FPRL1 ligand | VCAM-1 down imaging | VCAM-1 inhibition | VCAM-1 augmentation
- Cc1cccc(C)c1NC(=O)c1cc(S(=O)(=O)N2CCOCC2)ccc1F
  2 | -1 | i | i | i
- Cc1c(C#N)c2ncnc(-c3ccccc3)c2n1-c1ccccc1
  2 | -1 | i | i | i
- Cc1cccc(-c2nnc(SCC#N)n2-c2cccc(Cl)c2)c1
  -3 | 4 | i | i | i
- NC(N)=NC(=O)c1nc(Cl)c(N)nc1N
  2 | -1 | i | i | i

Rewritten field by field: part of the list above.
Cc1cccc(C)c1NC(=O)c1cc(S(=O)(=O)N2CCOCC2)ccc1F
- FPR binder = 2
- FPRL1 ligand = -1
- VCAM-1 down imaging = i
- VCAM-1 inhibition = i
- VCAM-1 augmentation = i
Cc1c(C#N)c2ncnc(-c3ccccc3)c2n1-c1ccccc1
- FPR binder = 2
- FPRL1 ligand = -1
- VCAM-1 down imaging = i
- VCAM-1 inhibition = i
- VCAM-1 augmentation = i
Cc1cccc(-c2nnc(SCC#N)n2-c2cccc(Cl)c2)c1
- FPR binder = -3
- FPRL1 ligand = 4
- VCAM-1 down imaging = i
- VCAM-1 inhibition = i
- VCAM-1 augmentation = i
